NPYLR7 ag – activates Aedes aegypti NPYLR7 receptor | AID 1259423 | hit rate 0.15% among 270,000 | activation, % at 10 µM | HEK293T NPYLR7/Galpha15, GCaMP6s calcium fluorescence; in the data active = activation above about 40%;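 note: 0% = vehicle and 100% = reference agonist at the receptor; some compounds past the cut are filed as inactive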
NPYLR7 ag max-min – further read-out of NPYLR7 ag, marked with its call; activation, %; measured here: Max-Min RFU normalised activation; some inactives read as strong as hits;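 span of the calcium signal over five minutes; 0% = vehicle and 100% = native peptide agonist; compound fluorescence can raise it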
* = called active by the depositor. This is a subset (hit frequency here may not be typical).

What do the screens show for `O=C(C1CCCC1)N1CCSC12C(=O)N(Cc1ccccc1Cl)c1ccc(F)cc12` (centres undefined)?
NPYLR7 ag: 17; NPYLR7 ag max-min: 17

Results for CCCCC(=O)n1ccn(S(=O)(=O)c2ccc(C)cc2)c1=O ?
NPYLR7 ag: 1; NPYLR7 ag max-min: 1

How did COc1cc(NC(=O)c2c(-c3ccccc3Cl)noc2C)c(OC)cc1Br do in these assays?
NPYLR7 ag: 1; NPYLR7 ag max-min: -1

What do the screens show for `CC(C)(C)C(=O)COC(=O)[C@@H]1CC(O)CN1S(=O)(=O)c1ccc(F)cc1` (some centres undefined)?
NPYLR7 ag: 4; NPYLR7 ag max-min: 2

What do the screens show for `CC1CN(C2CC2)CC1NC(=O)Nc1cccc2ccccc12` (centres undefined)?
NPYLR7 ag: -4; NPYLR7 ag max-min: -6

Results for CCCCN(Cn1nc(-c2cccc(Br)c2)oc1=S)C1CCS(=O)(=O)C1 (centres undefined) ?
NPYLR7 ag: 7; NPYLR7 ag max-min: 11

Results for CC(=O)NCC1Cc2ccccc2Sc2ccccc21 (centres undefined) ?
NPYLR7 ag: -1; NPYLR7 ag max-min: -3

What do the screens show for `O=C(NCCc1cccc2cccnc12)C1CC2CCC1C2` (centres undefined)?
NPYLR7 ag: 0; NPYLR7 ag max-min: -1

Results for COC(=O)Nc1cccc(OCc2csc(C)n2)c1 ?
NPYLR7 ag: -22; NPYLR7 ag max-min: -22

How did O=S(=O)(Nc1nc2ccccc2nc1NC1CCCC1)c1ccc2ccccc2c1 do in these assays?
NPYLR7 ag: 3; NPYLR7 ag max-min: 1

What do the screens show for `COc1ccc(-c2nn(-c3ccc(F)cc3)c(OC(C)=O)c2-c2ccc(NC(C)=O)cc2)cc1`?
NPYLR7 ag: -1; NPYLR7 ag max-min: 0

Results for O=C1C=C(c2ccccc2)C(=O)N1C1CCN(Cc2cccnc2)C1 (centres undefined) ?
NPYLR7 ag: -6; NPYLR7 ag max-min: -12

Results for O=C(NC1CC1)C1CCCN(C2CCN(C(=O)c3coc4ccccc34)CC2)C1 (centres undefined) ?
NPYLR7 ag: 23; NPYLR7 ag max-min: 17

What do the screens show for `COc1ccc(OCC(=O)N2CCOC(Cc3ccccc3)C2)cc1` (centres undefined)?
NPYLR7 ag: -8; NPYLR7 ag max-min: -12

Results for CS(=O)(=O)C1CCC(OC(=O)c2coc3ccccc23)C1 (centres undefined) ?
NPYLR7 ag: 6; NPYLR7 ag max-min: 4

How did COc1ccc(OC)c(S(=O)(=O)N2CCC(C)CC(C)(C)C2)c1 (centres undefined) do in these assays?
NPYLR7 ag: -9; NPYLR7 ag max-min: -13

How did CCc1[nH]c2c(CNC(=O)C(C)N3CCN(C)CC3)cc(C)cc2c1C (centres undefined) do in these assays?
NPYLR7 ag: -2; NPYLR7 ag max-min: -2

Results for CCC(=O)Nc1cccc(C2SCC(=O)N2c2cccc(F)c2C)c1 (centres undefined) ?
NPYLR7 ag: 26; NPYLR7 ag max-min: 30

Results for COC(=O)c1ccc(C(=O)NCc2cccc(-c3ncc(-c4ccc(F)cc4)[nH]3)c2)cc1 ?
NPYLR7 ag: -7; NPYLR7 ag max-min: -9

What do the screens show for `O=C(CNC(=O)C1CC1c1cc(Cl)cc(Cl)c1)NCCO` (centres undefined)?
NPYLR7 ag: 2; NPYLR7 ag max-min: 13

What do the screens show for `Cc1c(C(=O)N2CC(C)CC(C)C2)c(C(F)(F)F)nn1C1CCCN(C)C1` (centres undefined)?
NPYLR7 ag: 15; NPYLR7 ag max-min: 4

How did C=CCN(Cc1ccccc1OC)C(=O)c1c(C)nn(C)c1C do in these assays?
NPYLR7 ag: 2; NPYLR7 ag max-min: 1

How did CCn1c2ccccc2n2c(SCc3nc4ccccc4[nH]3)nnc12 do in these assays?
NPYLR7 ag: 8; NPYLR7 ag max-min: 4

How did Cc1ccc(C)c(CN(Cc2ccc3c(c2)OCO3)CC(O)COCc2ccccc2)c1 (centres undefined) do in these assays?
NPYLR7 ag: 7; NPYLR7 ag max-min: 9

How did Cc1noc(C)c1C1CCCN1C(=O)c1ccc(Cn2ccnc2)o1 (centres undefined) do in these assays?
NPYLR7 ag: -6; NPYLR7 ag max-min: -9

How did COc1ccccc1NC(=O)CCNC(=O)c1ccc2c(c1)CCO2 do in these assays?
NPYLR7 ag: 5; NPYLR7 ag max-min: 3

Results for CCN(Cc1cccc2cccnc12)C(C)c1ccc(C#N)cc1 (centres undefined) ?
NPYLR7 ag: 5; NPYLR7 ag max-min: 3

Results for O=C1OC(Cc2ccncc2)C(=O)C1C1=NCCCN1 (centres undefined) ?
NPYLR7 ag: 8; NPYLR7 ag max-min: 8

Results for CNC(=O)c1cn(Cc2ccccc2Cl)nc1-c1ccccc1 ?
NPYLR7 ag: 1; NPYLR7 ag max-min: -2

Results for CN(CC(=O)Nc1cccc2ccccc12)C(=O)C1CC2CCC(C1)C21SCCS1 (centres undefined) ?
NPYLR7 ag: 0; NPYLR7 ag max-min: -3

Results for Cc1ccsc1CN(Cc1ccc2c(c1)OCO2)C(=O)CN(CCN1CCCC1)C(=O)c1ccc(Cl)cc1Cl ?
NPYLR7 ag: 6; NPYLR7 ag max-min: 17

What do the screens show for `Cc1nnc(Sc2nc3c(c(=O)[nH]c(=O)n3C)n2Cc2ccc(Cl)cc2)s1`?
NPYLR7 ag: 11; NPYLR7 ag max-min: 6

Results for CC(C)Cn1c(O)c(C2=c3ccc(Cl)cc3=NC2=O)c2ccccc21 ?
NPYLR7 ag: -2; NPYLR7 ag max-min: -4

How did CC(C)n1cc(C#N)c(NS(=O)(=O)c2ccc(S(C)(=O)=O)cc2)n1 do in these assays?
NPYLR7 ag: 1; NPYLR7 ag max-min: 17

How did CC(=O)c1cccc(N2C(=O)CC3CS(=O)(=O)CC32)c1 (centres undefined) do in these assays?
NPYLR7 ag: -1; NPYLR7 ag max-min: 4

What do the screens show for `N#CCCN1CCN(S(=O)(=O)c2ccc(S(=O)(=O)NC3CCCC3)cc2)CC1`?
NPYLR7 ag: 0; NPYLR7 ag max-min: -2

3 structures out of the list, ordered by length of the SMILES, smallest number first.
Results for O=C1OC(Cc2ccncc2)C(=O)C1C1=NCCCN1 (centres undefined) ?
NPYLR7 ag: 8; NPYLR7 ag max-min: 8

What do the screens show for `N#CCCN1CCN(S(=O)(=O)c2ccc(S(=O)(=O)NC3CCCC3)cc2)CC1`?
NPYLR7 ag: 0; NPYLR7 ag max-min: -2

Results for Cc1ccsc1CN(Cc1ccc2c(c1)OCO2)C(=O)CN(CCN1CCCC1)C(=O)c1ccc(Cl)cc1Cl ?
NPYLR7 ag: 6; NPYLR7 ag max-min: 17

Next part.
Results for COc1ccc(NC(=O)Nc2ccc(-c3csc4nc(C)cc(=O)n34)cc2)cc1 ?
NPYLR7 ag: -6; NPYLR7 ag max-min: -5

Results for O=C(Cc1[nH]nc2ccccc12)N1CCCC1CC1CCCCC1 (centres undefined) ?
NPYLR7 ag: 6; NPYLR7 ag max-min: 5

How did C=CCN(CC(=O)N1CCc2sccc2C1c1ccc(Cl)cc1Cl)C(=O)c1cccc(C(F)(F)F)c1 (centres undefined) do in these assays?
NPYLR7 ag: 0; NPYLR7 ag max-min: -2

Results for Cn1ncc2c(N3CCOCC3)nc(NCCO)nc21 ?
NPYLR7 ag: 4; NPYLR7 ag max-min: 2

What do the screens show for `Cc1nsc(NC(=O)N2CCC(C(O)CCc3ccccc3)CC2)n1` (centres undefined)?
NPYLR7 ag: 5; NPYLR7 ag max-min: -5

Results for FC(F)(F)c1cc(-c2ccccc2)nc(-n2cc(Br)cn2)n1 ?
NPYLR7 ag: 5; NPYLR7 ag max-min: 2

How did CC1(C)SC(=O)N(Cc2ccc(C(F)(F)F)cc2)C1=O do in these assays?
NPYLR7 ag: 1; NPYLR7 ag max-min: -1

Results for Cc1ccc(C)c(NC(=O)Cn2c(=O)n(Cc3ccccc3)c(=O)c3oc4ccccc4c32)c1 ?
NPYLR7 ag: 10; NPYLR7 ag max-min: 12

Results for CCc1cc(=O)oc2cc3oc(C)c(-c4ccccc4)c3cc12 ?
NPYLR7 ag: -2; NPYLR7 ag max-min: -5

How did CCO[C@H]1C[C@@H]2O[C@H]1[C@H]1CN(Cc3ccccc3)C[C@H]1[C@@H]2O do in these assays?
NPYLR7 ag: 6; NPYLR7 ag max-min: 8

Results for COC(=O)c1ccccc1NC(=O)N1CCC(Cc2ccc(OC)cc2)CC1 ?
NPYLR7 ag: 2; NPYLR7 ag max-min: 11

Results for Cc1cc(CC(C)NC(=O)CSCc2ccccc2Cl)n[nH]1 (centres undefined) ?
NPYLR7 ag: -8; NPYLR7 ag max-min: -6

How did O=C(COc1ccc(Cl)cc1)N1CCC2(CC1)SCCN2C(=O)CCc1ccccc1 do in these assays?
NPYLR7 ag: -1; NPYLR7 ag max-min: 4

How did COc1ccc(N=C(N)N=C(N)N)cc1 do in these assays?
NPYLR7 ag: 2; NPYLR7 ag max-min: 7

Results for CO[C@H]1COC[C@@H]1NC(=O)CCn1c(C)cc2ccccc21 ?
NPYLR7 ag: 22; NPYLR7 ag max-min: 2

How did CCOc1ccccc1NC(=O)NC(C)c1nnc(SCc2ccccc2C)n1-c1ccc(C)cc1 (centres undefined) do in these assays?
NPYLR7 ag: -3; NPYLR7 ag max-min: 10

How did COc1ccc(/C=C(/NC(=O)c2ccccc2)C(=O)N/N=C\c2ccc[nH]2)cc1OC do in these assays?
NPYLR7 ag: -8; NPYLR7 ag max-min: -17

How did c1ccc(-c2ncn(C3CCSC3)c2-c2cccn2-c2ncccn2)cc1 (centres undefined) do in these assays?
NPYLR7 ag: 19; NPYLR7 ag max-min: 6

Results for Cc1ccc(Cc2nc(N3CCCN(C(=O)Nc4ccccc4Br)CC3)c3c(-c4cccnc4)noc3n2)cc1 ?
NPYLR7 ag: 18; NPYLR7 ag max-min: 4

How did CCn1nc(C)c(-c2c(-c3ccccc3)ncn2CCc2ccncc2)c1C do in these assays?
NPYLR7 ag: 2; NPYLR7 ag max-min: 0

Results for OCc1nc2ccc(-c3ccc(F)cc3Cl)cc2[nH]1 ?
NPYLR7 ag: 1; NPYLR7 ag max-min: -2

What do the screens show for `Cc1ccc(-c2nc3cc(C)ccn3c2NC(=O)C(C)C)cc1`?
NPYLR7 ag: -3; NPYLR7 ag max-min: 4

What do the screens show for `c1ccc(-c2cn3c4ccccc4nc3n2-c2ccc3c(c2)OCCO3)cc1`?
NPYLR7 ag: -7; NPYLR7 ag max-min: -10

Results for Cc1ccc(CN2CCCn3c2nc2c3c(=O)[nH]c(=O)n2C)cc1 ?
NPYLR7 ag: 6; NPYLR7 ag max-min: 2

Results for Clc1cccc(-c2cc3c(cn2)ncn3Cc2cccnc2)c1 ?
NPYLR7 ag: -4; NPYLR7 ag max-min: -3

How did CN(C)c1nc(N)nc(CN2CCOc3ccc(F)cc32)n1 do in these assays?
NPYLR7 ag: -6; NPYLR7 ag max-min: -7

Results for CCOC(=O)c1cc(-c2cccc(NC(=O)c3ccc4ccccc4n3)c2)n(-c2ccccn2)n1 ?
NPYLR7 ag: 7; NPYLR7 ag max-min: 4

Results for COc1cc2c(cc1OC)C(c1ccccc1)N(C(=O)Nc1ccc(F)cc1)CC2 (centres undefined) ?
NPYLR7 ag: 23; NPYLR7 ag max-min: 15

How did COC(=O)c1ccccc1C(=O)N1CCCC(CO)(CCc2ccccc2)C1 (centres undefined) do in these assays?
NPYLR7 ag: 1; NPYLR7 ag max-min: -2

How did O=c1ccn(CCc2nnc(SCc3ccc(Cl)cc3)o2)c(=O)[nH]1 do in these assays?
NPYLR7 ag: 20; NPYLR7 ag max-min: 13

What do the screens show for `COc1ccc(CNC(=O)c2nn3c(C(F)(F)F)cc(-c4ccccc4)nc3c2Cl)cc1`?
NPYLR7 ag: 10; NPYLR7 ag max-min: 9

What do the screens show for `c1ccc(CN2CCCCC2CCNc2ncnc3c2CCNC3)cc1` (centres undefined)?
NPYLR7 ag: -1; NPYLR7 ag max-min: -2

How did COCc1ccc(C(=O)NC(C#N)c2ccccc2C)cc1 (centres undefined) do in these assays?
NPYLR7 ag: 8; NPYLR7 ag max-min: 4

How did CC1OC(=O)C(C(=O)C(C)(C)C)=C(C(C)(C)C)O1 (centres undefined) do in these assays?
NPYLR7 ag: -5; NPYLR7 ag max-min: -7

How did CC(=O)Nc1nc2nc(C)cc(C)n2[n+]1-c1ccccc1 do in these assays?
NPYLR7 ag: -1; NPYLR7 ag max-min: -2

How did COCCCNC(=O)c1nn(-c2ccccc2F)c(=O)n(Cc2cccc(Cl)c2)c1=O do in these assays?
NPYLR7 ag: 9; NPYLR7 ag max-min: 13

Among those listed so far, these contain an NH in an aromatic ring.
How did CCc1[nH]c2c(CNC(=O)C(C)N3CCN(C)CC3)cc(C)cc2c1C (centres undefined) do in these assays?
NPYLR7 ag: -2; NPYLR7 ag max-min: -2

Results for COC(=O)c1ccc(C(=O)NCc2cccc(-c3ncc(-c4ccc(F)cc4)[nH]3)c2)cc1 ?
NPYLR7 ag: -7; NPYLR7 ag max-min: -9

How did CCn1c2ccccc2n2c(SCc3nc4ccccc4[nH]3)nnc12 do in these assays?
NPYLR7 ag: 8; NPYLR7 ag max-min: 4

What do the screens show for `Cc1nnc(Sc2nc3c(c(=O)[nH]c(=O)n3C)n2Cc2ccc(Cl)cc2)s1`?
NPYLR7 ag: 11; NPYLR7 ag max-min: 6

Results for O=C(Cc1[nH]nc2ccccc12)N1CCCC1CC1CCCCC1 (centres undefined) ?
NPYLR7 ag: 6; NPYLR7 ag max-min: 5

Results for Cc1cc(CC(C)NC(=O)CSCc2ccccc2Cl)n[nH]1 (centres undefined) ?
NPYLR7 ag: -8; NPYLR7 ag max-min: -6

How did COc1ccc(/C=C(/NC(=O)c2ccccc2)C(=O)N/N=C\c2ccc[nH]2)cc1OC do in these assays?
NPYLR7 ag: -8; NPYLR7 ag max-min: -17

Results for OCc1nc2ccc(-c3ccc(F)cc3Cl)cc2[nH]1 ?
NPYLR7 ag: 1; NPYLR7 ag max-min: -2

Results for Cc1ccc(CN2CCCn3c2nc2c3c(=O)[nH]c(=O)n2C)cc1 ?
NPYLR7 ag: 6; NPYLR7 ag max-min: 2

How did O=c1ccn(CCc2nnc(SCc3ccc(Cl)cc3)o2)c(=O)[nH]1 do in these assays?
NPYLR7 ag: 20; NPYLR7 ag max-min: 13

From PubChem
